hNpr1 antagonist: Natriuretic polypeptide receptor (hNpr1) antagonism - Primary qHTS. Atrial natriuretic peptide receptor 1 (Homo sapiens), P16066. HEK293 hNpr1 GloSensor cGMP, ANP-stimulated luminescence. Potency, µM (titrated, usually from 46.3 µM), without a hit: at the highest dose activity change, negative = inhibition, usual class: inhibitors. 1.6% of 76,000 active. AID 1347048, 2019; active = well fitted inhibition curve with a large enough effect; inconclusive = small, poorly fitted or top-dose-only effect; inactive = no such curve, though single readings can be large or run the other way;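 further: nearly all actives have a fitted effect of over 60% in size; nearly all hits also lower the signal before the agonist is added; a reference antagonist and vehicle were the controls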
Target sequence (P16066 whole entry, looked up): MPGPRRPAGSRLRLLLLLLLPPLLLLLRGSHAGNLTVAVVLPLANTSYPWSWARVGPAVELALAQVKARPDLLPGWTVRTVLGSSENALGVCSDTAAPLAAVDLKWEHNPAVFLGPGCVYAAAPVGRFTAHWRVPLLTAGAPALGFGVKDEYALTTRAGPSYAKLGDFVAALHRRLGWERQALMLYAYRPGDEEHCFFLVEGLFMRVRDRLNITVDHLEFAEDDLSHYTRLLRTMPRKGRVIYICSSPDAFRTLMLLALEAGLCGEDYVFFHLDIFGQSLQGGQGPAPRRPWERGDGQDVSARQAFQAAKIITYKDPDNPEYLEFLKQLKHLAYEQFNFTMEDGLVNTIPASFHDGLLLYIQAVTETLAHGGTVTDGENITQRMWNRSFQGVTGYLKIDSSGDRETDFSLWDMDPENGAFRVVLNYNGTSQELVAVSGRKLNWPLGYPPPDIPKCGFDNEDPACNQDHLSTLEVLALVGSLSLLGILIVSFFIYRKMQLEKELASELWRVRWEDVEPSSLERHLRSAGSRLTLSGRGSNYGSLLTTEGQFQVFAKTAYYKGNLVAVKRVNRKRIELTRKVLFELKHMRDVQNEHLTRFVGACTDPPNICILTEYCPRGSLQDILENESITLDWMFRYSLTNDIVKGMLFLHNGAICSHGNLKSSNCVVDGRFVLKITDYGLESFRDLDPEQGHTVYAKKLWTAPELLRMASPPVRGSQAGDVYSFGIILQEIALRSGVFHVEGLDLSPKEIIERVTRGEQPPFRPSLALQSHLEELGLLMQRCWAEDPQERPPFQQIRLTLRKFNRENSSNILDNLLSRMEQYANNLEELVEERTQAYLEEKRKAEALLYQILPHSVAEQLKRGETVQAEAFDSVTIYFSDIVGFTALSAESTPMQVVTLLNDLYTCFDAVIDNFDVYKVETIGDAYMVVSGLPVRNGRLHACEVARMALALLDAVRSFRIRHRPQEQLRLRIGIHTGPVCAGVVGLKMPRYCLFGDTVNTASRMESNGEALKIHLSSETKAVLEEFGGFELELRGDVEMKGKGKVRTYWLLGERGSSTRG
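HEK293 cells stably expressing human Npr1 and cGMP GloSensor pGS-40F, loaded 2 h with 2% GloSensor reagent, given compound 30 min at room temperature. Luminescence read before and 20 min after 0.1 nM hNppA.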
* marks the source's active call; other numbers are inactive results; ? = inconclusive; [ ] = dose if it differs, or a comment. On the % scale 0 is the no-effect control and ±100 the full control effect; potency means the concentration at half of the fitted maximal effect. A portion of the library. The share of hits here may be higher or lower than overall.

SMILES	hNpr1 antagonist
CCOCCN1C(=O)NC(c2ccccc2)C2=C1COC2=O (configuration not stated)	-0.6%
Cc1ncsc1C(=O)NC1CC(c2cc(=O)[nH]c(N3CCCC3)n2)C1 (configuration not stated)	-1.7%
Cc1cc(C[C@@H]2COC[C@@H]2NC(=O)c2ccccc2-c2ccc(F)cc2)on1	-1.2%
O=C(CCc1cc2ccccc2[nH]c1=O)NCc1ccco1	1.1%
CCc1cccc(NC(=O)C2CCN(C(=O)c3nnn4c3COC(c3ccc(C)cc3)C4)CC2)c1 (configuration not stated)	-13.8%
O=C(N[C@@H](Cn1cc(Cl)c(=O)[nH]c1=O)C(=O)O)C1CCCCC1	-0.6%[70.6 µM]
CCc1nc(-c2c3n(c(=O)n(CC(=O)Nc4cccc(F)c4)c2=O)CCCCC3)no1	-0.1%
Cc1cc(C)cc(NC(=O)NCC2CCOCC2)c1	-14.4%
CCc1cccc2c(C(CC(=O)NCCc3ccccc3)c3cccc4c3OCO4)c[nH]c12 (configuration not stated)	-19.7%
CSc1ccc(CNC(=O)C2(c3ccc(NS(C)(=O)=O)cc3)CCCCC2)cc1	-3.4%
O=C(CCC1CCN(Cc2ccc(Cl)s2)CC1)N1CCN(c2ccccc2)CC1	-26.9%
O=C1c2c(nc(COc3ccc4c(c3)OCO4)n2Cc2ccccc2)NCCN1CC1CCOCC1	-0.7%
O=C(c1nccc2ccccc12)N1CCc2c(nc(-c3ccc(F)cc3)[nH]c2=O)C1	-11.6%
COc1ccc(C(=O)N2CC3CC(C2)[C@H]2CCCC(=O)N2C3)cc1F (some centres not stated)	-1.7%
CC1(C(=O)N2CCc3ccccc3C2)CCCCC(=O)N1 (configuration not stated)	4.7%
Cc1ccc(C(=O)N2CCCN(S(=O)(=O)c3ccccc3)CCC(=O)NCC2)cn1	-0.9%
CCNc1ncnc2sc3c(c12)CCN(Cc1ccc[nH]1)C3	-9.0%
COCCN1Cc2[nH]nc(-c3ccccc3OC)c2CC1=O	6.9%[70.6 µM]
O=C(CC1CCOC2(CCN(C(=O)c3ccccc3)CC2)C1)NC1CC1 (configuration not stated)	1.4%
Cc1ccc(C(=O)NC2CCN(c3cnn(C)c(=O)c3)CC2)cc1C	0.7%
O=C1Nc2ccc(-c3cccc(C(F)(F)F)c3)cc2C(=O)N2CCN(C(=O)NC3CCCCC3)C[C@H]12	0.5%
Cc1cc(C(=O)N2CC(c3nnc(-c4ccncc4)o3)C3(CCOCC3)C2)nn1C (configuration not stated)	-11.5%
COc1ccccc1CCC(=O)N1[C@@H]2CC[C@H]1CC(NC(=O)c1ccncc1)C2 (some centres not stated)	-3.0%
COc1ccccc1-c1[nH]nc2ncc(-c3ccccc3F)nc12	-24.0%[70.6 µM]
Cc1ccc(NC(=O)C2CCc3ncc(-c4ccsc4)n3C2)cc1C (configuration not stated)	-5.9%
CCC(=O)NC[C@@H]1CC[C@H]2C[C@@H]1C2(C)C	5.7%[70.6 µM]
COc1cccc(CNC(=O)[C@@H]2C[C@@H](O)CN2C2CCN(C(=O)c3nccn3C)CC2)c1	-0.3%
COc1ccc(C(=O)NCCn2ccn3nc(-c4cc(C)ccc4C)cc3c2=O)cc1OC	-19.3%
O=C(Nc1ccccc1F)N1CC(c2nc(CCOCC3CC3)no2)C1	-3.4%
CCOC(=O)C1=C(C)N=C2SC=C(CC(=O)N3CCCC3)N2C1c1cccc(F)c1 (configuration not stated)	-26.8%
CS(=O)(=O)N1CCCC(C(=O)NCCc2cccnc2)CCNC(=O)CC1 (configuration not stated)	-0.2%
C[C@@H](NC(=O)N1CCOC[C@H]1c1ncc(-c2ccc(F)cc2)[nH]1)c1ccccc1	4.3%[70.6 µM]
Cn1cccc1C(=O)NC1CCc2nn(C)c(=O)n2CC1 (configuration not stated)	0.9%
Cc1ccc(C(=O)N2CCC3(CC2)CC(=O)c2ccc(Cl)cc2O3)cc1	?
COc1ccc(S(=O)(=O)N[C@H]2C[C@@H](c3nc(-c4cnccn4)no3)N(C)C2)cc1	6.7%[70.6 µM]
Cc1ccc(C2Cn3nnc(C(=O)N4CCC(C(=O)NCc5cccnc5)CC4)c3CO2)cc1 (configuration not stated)	-1.9%

3 structures already listed, arranged by number of heavy atoms, rising:
SMILES	hNpr1 antagonist
Cn1cccc1C(=O)NC1CCc2nn(C)c(=O)n2CC1 (configuration not stated)	0.9%
Cc1ccc(C(=O)N2CCC3(CC2)CC(=O)c2ccc(Cl)cc2O3)cc1	?
CS(=O)(=O)N1CCCC(C(=O)NCCc2cccnc2)CCNC(=O)CC1 (configuration not stated)	-0.2%

(more compounds)
SMILES	hNpr1 antagonist
CC(C)n1c(C2CCN(C(=O)c3cn[nH]c3-c3ccc(F)cc3)CC2)nn(C)c1=O	2.6%
O=C(N[C@H]1CCN2C(=O)c3ccccc3NC(=O)[C@@H]2C1)c1cccs1	7.2%[70.6 µM]
OCc1cc(CC2(NCc3ccc(C(F)(F)F)cc3)COC2)no1	5.5%[70.6 µM]
CCC(C)NC(=O)Cn1nc(C)c2sc(-c3ccccc3)nc2c1=O (configuration not stated)	3.0%
Cc1nn(-c2ccccc2)c(Oc2ccc(F)cc2F)c1CCC(=O)NCC1CC1	-30.4%
CC(C)C(=O)NCC(=O)N1CCC2(CC1)Nc1ccccc1NC2=O	0.4%
COc1cccc(C(=O)N2CC(Oc3ccccc3-c3nc(-c4ccccc4)no3)C2)c1	-7.7%
COCCN1C(=O)[C@@H]2C[C@@H](CN2CC2CC2)Oc2ccccc21	-10.9%[70.6 µM]
CCN(CC)CCNC(=O)CCc1cc2cc(OC)ccc2[nH]c1=O	-0.3%
COCCN1C(=O)CC[C@]2(C(=O)NCc3cccc(F)c3)CCCC[C@@H]12	0.1%
CCc1nccn1CC(=O)Nc1nn(C)c2cccc(Oc3cccnc3)c12	2.0%
O=c1n(-c2ccc([N+](=O)[O-])cc2)nc2n1CCN(Cc1ccc(C(F)(F)F)cc1)C2	14.1µM*
COCC(=O)NC[C@@H]1C=C(C)[C@H](CC(=O)O)C[C@H]1C(C)C	-2.8%[70.6 µM]
C[C@@]1(O)CCN(c2ncccc2C(=O)c2nccs2)C[C@@H]1O	16.2%
CCCS(=O)(=O)N1CCC(N2C(=O)C3(CCCCC3)C2c2ccncc2)CC1 (configuration not stated)	0.9%
COc1ccc(NC(=O)C2=NO[C@@H]3CN(c4cccnc4)C[C@H]23)cc1	?
CN(Cc1cccnc1)c1nc2c(c(=O)[nH]1)CCN(Cc1cccc(Cl)c1F)CC2	-12.2%
N#Cc1ccc(C(=O)N2CCC3(CC2)NC(=O)N(Cc2ccc(Cl)cc2)C3=O)cc1	?
Fc1ccc2c(c1)nc1n2[C@@H](CNCc2ccccn2)COC1	-7.5%[70.6 µM]
CN(C)C[C@@H]1CN(c2ccncn2)C[C@H]1NC(=O)c1cccn1C	4.6%
CN1CCCCCC(O)c2cc(C(=O)NCCCc3ccccc3)ccc21 (configuration not stated)	-15.3%
CCCc1ccc(S(=O)(=O)N(CCC)CC2CCOC2)cc1 (configuration not stated)	-2.5%
COc1ccc(CNC(=O)c2c(C)noc2-c2cc(OC)cc(OC)c2)cc1	-1.8%
O=C(Nc1ccccc1)N1C[C@@H]2C[C@H](C1)c1ccc(-c3cccc(C(F)(F)F)c3)c(=O)n1C2	-3.6%
O=C(CC1CCN(C(=O)c2ccco2)C1)N1CCOCC1 (configuration not stated)	0.0%
COCCNC(=O)C(NC(=O)c1ccccc1F)C1CCN(C(=O)c2ccccc2F)CC1 (configuration not stated)	-10.5%
Cc1ccc(CNC(=O)NC2CCc3nn(CC4CC4)c(=O)n3CC2)cc1 (configuration not stated)	3.6%
Cn1ncc(N2CCC(NC(=O)Cc3cccs3)CC2)cc1=O	-2.1%
O=C(c1n[nH]c2ccccc12)N1CCC2(CC1)CC(N1CCCCC1)CCO2 (configuration not stated)	-14.2%
COC[C@H]1CCCN1C(=O)CC[C@H]1CNC(=O)[C@@H]2[C@@H](CCN2Cc2ccc(OC)cc2)N1C	-1.8%
O=C(c1ccccc1)N1CCC2(CC1)N=C(c1cccc(Br)c1)NO2	-10.7%
N#Cc1ccc(CN2CC3(C2)NC(=O)c2ccccc2O3)cc1	-2.5%[70.6 µM]
COc1cccc(-c2cc(-c3c(C)noc3C)c3cncn3c2)c1OC	0.2%[70.6 µM]
COCCNS(=O)(=O)c1cc(C(=O)O)cc(-c2c(OC)cccc2OC)c1	4.3%
C[C@@H](Nc1ccc(-c2nc(CCCc3ccccc3)no2)cn1)C(N)=O	8.0%
O=C([C@@H]1C[C@H](F)CN1C(=O)c1ccsc1)N1CCOCC1	3.3%

3 entries from above, with each value named.
Cn1ncc(N2CCC(NC(=O)Cc3cccs3)CC2)cc1=O
  hNpr1 antagonist = -2.1%
O=C(c1n[nH]c2ccccc12)N1CCC2(CC1)CC(N1CCCCC1)CCO2 (configuration not stated)
  hNpr1 antagonist = -14.2%
COC[C@H]1CCCN1C(=O)CC[C@H]1CNC(=O)[C@@H]2[C@@H](CCN2Cc2ccc(OC)cc2)N1C
  hNpr1 antagonist = -1.8%

Remaining list, next part
SMILES	hNpr1 antagonist
COCCN1C(=O)c2ccccc2C(C(=O)Nc2cc(OC)cc(OC)c2)C12CCCC2 (configuration not stated)	-0.7%
CC1(C(=O)N2C[C@@H](COc3cccnc3)[C@H](c3ccccn3)C2)CC1	2.2%
CCCC1c2nccn2CCCN1C(=O)c1cccc(OC)c1OC (configuration not stated)	-8.4%
CN1CCCCCC(O)c2cc(C(=O)N3CCN(c4ccccc4F)CC3)ccc21 (configuration not stated)	-13.9%
CCOc1ccccc1C(=O)N1CCC[C@H]1c1nc(-c2ccc(C)cc2)no1	-4.7%
O=C1N2CCCC2CN1C1CCN(Cc2ccc(F)cc2)CC1 (configuration not stated)	-3.1%[70.6 µM]
CC(C)N1C(=O)C2(CCCCC2)C1C(=O)NC1CC1 (configuration not stated)	2.5%
Cc1ccc(CNC(=O)NC2CCN(C(=O)N3CC4CC(C3)[C@H]3CCCC(=O)N3C4)CC2)cc1 (some centres not stated)	-0.4%
COc1ccc(CN[C@H]2[C@H](O)[C@@H](N3CCC(C(N)=O)CC3)[C@@H]3OC[C@H]2O3)cc1	2.7%[70.6 µM]
O=C1CC2(CCN(C(=O)c3ccc(C(F)(F)F)cc3)CC2)Oc2cc(Cl)ccc21	-20.4%
CN(C)C(=O)N1CCCCC12Cc1ccccc1NC2=O (configuration not stated)	-2.7%[70.6 µM]
Cc1nc(-c2cn(C3CCCN(C(=O)c4cc5ccccc5[nH]4)C3)nn2)no1 (configuration not stated)	-1.8%
O=C(CC1CCCCC1)NCCc1noc(C2CC2)n1	-2.6%
CC(=O)N1CCC(N2C[C@@H]3OCC(=O)N(Cc4ccccn4)[C@@H]3C2)CC1	6.1%[70.6 µM]
COCCO[C@H]1C(=O)N(C2CCN(C(=O)c3ccc(OC)cc3)CC2)[C@H]1c1ccncc1	0.2%
CC1CCN(C(=O)C[C@@H]2c3nc(NC(=O)c4c(F)cccc4F)sc3C[C@@H]3[C@](C)(CO)[C@H](O)CC[C@]32C)CC1	-21.2%
COc1ccccc1-c1cc(-c2ccncc2)c2cncn2c1	-23.0%[70.6 µM]
CCc1cccc(C)c1NC(=O)Cn1c(=O)n(-c2ccc(F)cc2)c(=O)c2c1cc(C)n2C	-4.9%
O=C1NCN(Cc2ccc(Cl)cc2)C12CCN(Cc1ccc(OC(F)(F)F)cc1)CC2	-4.1%
O=C(c1ccc(Cl)cc1)N1CCc2sc(C(=O)N3CCOCC3)cc2C1	0.2%
COc1ccc(CNC(=O)[C@@H]2Cc3nc[nH]c3CN2Cc2ccc(OC)c3ccccc23)cc1	-8.0%
CN1CC(=O)N(c2cccnc2)Cc2c1ncnc2N1CCC(c2ccccc2)CC1	-3.8%
CN(CC1CCOCC1)S(=O)(=O)c1ccc(Br)cc1	3.8%
CN(C)CC1(O)CCCN(Cc2ccc(CCN)cc2)C1 (configuration not stated)	1.8%
CCCn1ncc(CN(C)CC2CCN(CCc3ccc(Cl)cc3)CC2)c1C	-1.6%
CCn1ccc(C(=O)N2c3ccccc3CC2c2nc(C(C)C)no2)n1 (configuration not stated)	-11.5%
CCCCNC(=O)C1CCc2sc(C(=O)N3CCOCC3)cc2C1 (configuration not stated)	-0.6%
COC[C@H]1C[C@@H](NC(=O)c2cc(C(C)(C)C)oc2C)[C@H](O)[C@@H]1O	-0.1%[70.6 µM]
CCN1c2cc(C(=O)Nc3ccc(Cl)c(F)c3)ccc2C(=O)N2CCCCC21 (configuration not stated)	-14.2%
CCc1noc(-c2cn(C3CCN(C(=O)c4cc(Cl)ccc4F)C3)nn2)n1 (configuration not stated)	1.1%
COCC1CN(C(C)=O)CC12CCN(C(=O)C1CC=CC1)CC2 (configuration not stated)	-2.3%
O=C(O)c1ccc(CN2CCOC[C@H]2c2ncc(-c3ccc(Cl)s3)[nH]2)cc1	2.2%[70.6 µM]
O=C(NCc1ccc2nonc2c1)C1NCCc2[nH]cnc21 (configuration not stated)	3.6%
Cc1noc(C)c1-c1cc2c(c(-c3ccc(CO)cc3)c1)C(=O)N(C)C2	4.4%[70.6 µM]
Cc1nonc1CN1CCN(c2cc(C3CC(N)C3)nc(N)n2)CC1 (configuration not stated)	1.9%
COc1cc(CC(=O)N2Cc3[nH]cnc3CC2C(=O)O)cc(OC)c1OC (configuration not stated)	0.8%
COCCn1c(=O)n([C@H]2CCCN(C(=O)c3cnc(C)cn3)C2)c2ncccc21	2.9%

Entries shown so far containing a cyano group:
SMILES	hNpr1 antagonist
N#Cc1ccc(C(=O)N2CCC3(CC2)NC(=O)N(Cc2ccc(Cl)cc2)C3=O)cc1	?
N#Cc1ccc(CN2CC3(C2)NC(=O)c2ccccc2O3)cc1	-2.5%[70.6 µM]

Screening results from PubChem BioAssay.
